# Mtb betalactam = beta-lactam sensitization of Mtb H37Rv. M. tuberculosis H37Rv growth with meropenem, percent inhibition; hits of this screen are not shown here. inhibition, % at 25 µM. actives 0.27% (n = 330,000);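 active = about 74% or more and at least 40 points above the plate without the antibiotic, then above 30% in a dose series; inconclusive = first-round hits that could not be retested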;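 note: growth measured after seven days incubation then overnight dye step; 0% = bacteria only wells and 100% = bacteria with antibiotic; twin plates without the antibiotic show which effects depend on it; some results filed as inactive read as strong as hits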
# RecA splice inh = Mtb RecA intein splicing inhibition. P9WHJ3. inhibition, %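 (about 9 µM by stock and volumes)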. cell-free RecA intein splicing, fluorescence. actives 0.75% (n = 290,000); in the data active = inhibition above about 30%; inconclusive = no clear call, values can overlap the other calls;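 note: 0% = vehicle wells and 100% = reference inhibitor control wells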
# Target sequence (P9WHJ3 whole entry, looked up, canonical isoform): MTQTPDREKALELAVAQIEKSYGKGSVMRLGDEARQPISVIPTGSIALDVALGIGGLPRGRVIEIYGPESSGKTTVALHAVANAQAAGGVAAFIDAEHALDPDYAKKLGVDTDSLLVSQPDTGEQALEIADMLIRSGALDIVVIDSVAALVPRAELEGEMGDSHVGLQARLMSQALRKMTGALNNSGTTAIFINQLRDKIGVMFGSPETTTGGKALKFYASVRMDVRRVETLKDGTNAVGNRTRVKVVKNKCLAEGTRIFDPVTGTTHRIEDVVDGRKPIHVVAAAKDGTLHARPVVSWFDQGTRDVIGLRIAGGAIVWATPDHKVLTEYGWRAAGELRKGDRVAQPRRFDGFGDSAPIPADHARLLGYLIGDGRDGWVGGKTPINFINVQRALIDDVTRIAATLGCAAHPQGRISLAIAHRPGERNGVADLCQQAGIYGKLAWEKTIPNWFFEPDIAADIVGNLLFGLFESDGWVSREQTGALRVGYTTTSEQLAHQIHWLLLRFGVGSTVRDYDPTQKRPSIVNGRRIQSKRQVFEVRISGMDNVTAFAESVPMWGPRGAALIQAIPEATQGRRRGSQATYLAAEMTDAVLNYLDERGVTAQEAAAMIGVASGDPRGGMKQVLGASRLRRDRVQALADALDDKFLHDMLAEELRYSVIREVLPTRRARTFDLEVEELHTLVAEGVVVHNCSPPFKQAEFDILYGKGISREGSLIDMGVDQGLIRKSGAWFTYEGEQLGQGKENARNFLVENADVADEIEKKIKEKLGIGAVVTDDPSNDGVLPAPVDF
# YopH inh = YopH (Yersinia) phosphatase inhibition | AID 898 | actives 0.16% (n = 140,000) | inhibition, %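 (about 10 µM by stock and volumes)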 | fluorescence Ex485/Em525;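 active = inhibition of 50% or more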;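 note: controls were vehicle for no effect and minimum signal wells for full effect; inactives centre near -20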
# Mtb growth = M. tuberculosis H37Rv growth inhibitors, H37Rv strain (AID 1626). M. tuberculosis H37Rv growth inhibition; higher % means a stronger effect. one-dose inhibition, % at 10 µM; IC50 in µM for titrated hits. actives 0.95% (n = 220,000);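 active = confirmed in a dose series; inconclusive = inhibition above 80% but not taken into the dose series; inactive = below 80% or under 30% at every dose of the series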;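 note: bacteria incubated seven days before Alamar blue readout; 0% = bacteria only wells and 100% = bacteria with antibiotic wells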
# Arbovirus inh = antivirals against arbovirus infection | arbovirus infection cell-based antiviral screen | actives 0.37% (n = 200,000) | AID 1251 | inhibition, % at 10 µM;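 active = inhibition from about 30%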;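 note: bluetongue infection of BSR cells; cell survival read as ATP light after 72 h; 0% = infected wells without compound and 100% = uninfected wells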
# Arbovirus inh repeat = recorded beside Arbovirus inh, whose call it bears; inhibition, %; measured here: 10K subset replicate screen; many hits read low in the repeat;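 first of two repeat runs on a subset; 0% = infected and 100% = uninfected wells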
# * hit, by the source's call; ? = inconclusive; / = no result given.
SMILES,Mtb betalactam,RecA splice inh,YopH inh,Mtb growth,Arbovirus inh,others
CC1(C)CN=C(Nc2nc3ccccc3s2)S1,/,-13,-10,6%,-7,
CCOC(=O)c1nn(-c2ccc(C)cc2)c(=O)cc1OCC(=O)Nc1ccc(OC)cc1,1,-2.4,/,/,/,
CCn1c(Cc2ccccc2)nnc1SCC(=O)Nc1ccc(N2CCOCC2)c(Cl)c1,1,2.5,34,-2%,2,
O=C(Nc1cccc(C(F)(F)F)c1)c1cnc2n(c1=O)CCS2,2,-3.8,-24,4%,-1,Arbovirus inh repeat=-4
CSc1nc2sc3c(c2c(=O)n1CC(C)C)CC(C)(C)OC3,4,2.5,/,2%,/,
CC(C)OC(=O)CSc1nnc2n1C(C)(C)Cc1ccccc1-2,-3,-1.1,-21,-4%,-2,
COc1cccc(CN=CC2=C(O)CC(C)(C)CC2=O)c1OC,2,2.2,3,-6%,-1,
Cc1[nH]n2c(=O)cc(Cc3ccccc3)nc2c1C#N,0,-7.1,-81,-10%,5,
COc1cc(C)c(COc2ncnc3ccccc23)cc1OC,1,-2.2,/,/,/,
COc1ccc(NC(=S)NCc2cccnc2)cc1OC,1,-1.3,/,-1%,1,
COc1ccccc1N(Cc1ccccc1)S(=O)(=O)c1cccc(C(=O)O)c1,3,12,-34,-1%,2,
CC(C)(CCl)C(=O)Nc1ccc(Sc2ccc(F)cc2)cc1,11,9.8,-28,-6%,-40,

# By substructure: the entries above with fluorine (2)
SMILES,Mtb betalactam,RecA splice inh,YopH inh,Mtb growth,Arbovirus inh,others
O=C(Nc1cccc(C(F)(F)F)c1)c1cnc2n(c1=O)CCS2,2,-3.8,-24,4%,-1,Arbovirus inh repeat=-4
CC(C)(CCl)C(=O)Nc1ccc(Sc2ccc(F)cc2)cc1,11,9.8,-28,-6%,-40,

# New compounds follow:
SMILES,Mtb betalactam,RecA splice inh,YopH inh,Mtb growth,Arbovirus inh,others
CCOc1ccc(CN2CCNC(=O)C2CC(=O)NCCCOc2cccnc2)cc1 (stereo not drawn),1,2.4,/,/,/,
O=C(NCCC(=O)N1CCN(C(=O)c2ccco2)CC1)c1ccc(Br)cc1,-9,-4.9,/,/,/,
O=C(O)c1ccccc1N=Nc1c(O)[nH]c2ccc([N+](=O)[O-])cc12,3,0.7,/,/,/,
O=C(CCN1C(=O)c2ccc([N+](=O)[O-])cc2C1=O)Nc1ccc(O)cc1C(=O)O,2,-6.9,/,-8%,14,
Oc1ccc(-c2nc3ccccc3nc2-c2ccccc2)cc1,-8,7.0,/,/,/,
COC(=O)c1cnn2c(C(F)(F)F)cc(-c3ccc(F)cc3)nc12,-10,-6.8,-37,-11%,6,
COc1ccc(C(=O)NC(=S)Nc2cccc(S(=O)(=O)N3CCOCC3)c2)cc1,-7,-0.9,/,-6%,-19,
CCOC(=O)C1(CCc2ccccc2)CCN(Cc2c(O)cccc2OC)CC1,20,4.6,/,4%,-17,
CC1COc2ccccc2N1C(=O)c1ccccc1Cl (stereo not drawn),-2,3.2,/,/,/,
Cn1c(=O)[nH]c(=O)c2c1nc1n2CCCN1CCc1ccccc1,-5,-2.8,-28,-1%,-8,
Cc1c(/C=C/C(=O)c2cccs2)cnn1C,-10,3.1,-2,-2%,1,
CC1CC(C)CN(C(=O)COC(=O)Cc2ccc(Cl)cc2)C1 (stereo not drawn),8,-2.0,/,/,/,
CCN(CCNC(=O)c1ccc(CSc2nc3ccncc3[nH]2)cc1)c1ccccc1,0,3.0,-1,/,-8,
COc1cc(C(CC(=O)N2CCOCC2)c2c(OC)cc(OC)c3ccc(=O)oc23)cc(OC)c1OC (stereo not drawn),-3,-1.9,/,-1%,/,
O=C1NCCN1c1ccc(CN2CCN(C3CCCCC3)C(CCO)C2)cc1 (stereo not drawn),1,-2.0,/,-1%,-1,
CCOC(=O)c1c(O)c2c(n(Cc3ccco3)c1=O)CCCC2,-6,-1.2,-6,5%,31*,Arbovirus inh repeat=22*
O=S(=O)(c1ccccc1)N1CCC(O)(CSc2ccccc2)CC1,-7,1.1,/,-2%,11,
Cc1cccc(C)c1OP(N)(=O)OCC(F)(F)F (stereo not drawn),3,0.1,-26,-5%,2,
O=C(O)c1ccccc1C(=O)Nc1nc(-c2ccc3ccccc3c2)cs1,8,0.4,/,/,/,
O=[N+]([O-])c1ccc(-c2ccn[nH]2)o1,99,13,-6,37%,-1,
O=C(CSc1nnc(SCC(=O)c2ccco2)s1)c1ccco1,6,3.6,-37,-2%,8,
O=C(c1cccc2ccccc12)N1CCN(c2ccccc2F)CC1,4,6.9,-20,-2%,-4,
NCc1cc2c3c(c1)CCCN3CCC2,-6,-6.8,/,/,/,
COc1ccc(C(=O)CSc2nnc(CNC(=O)c3ccc(S(=O)(=O)N(C)C)cc3)o2)cc1,-2,1.0,/,/,/,
CCN(CC)S(=O)(=O)c1ccc(N2CCOCC2)c(NC(=O)C2CC2)c1,-3,-0.1,/,/,/,
O=C(Nc1ccc(F)cc1F)c1c(C(F)(F)F)ccnc1Oc1ccc(Cl)cc1,2,0.2,/,-5%,/,
COc1cccc(-c2c(C(=O)N/N=C/c3ccc(C)o3)nnn2-c2nonc2N)c1,16,-0.4,/,/,/,
O=S(=O)(c1cccs1)N1CCN(S(=O)(=O)c2cccs2)CC1,-2,13,/,-1%,7,
Cc1cc(N2CCOCC2)nc(-c2ccc(Br)cc2)n1,-2,24,6,6%,-1,
CCCCCn1c(C)c2c(OCC)cccc(=O)c2c1C,32,6.5,/,15%,/,
C/C(=N\NC(=S)NCc1ccccc1)c1ccc(C)o1,85,1.7,/,0%,-1,
COc1ccc(-n2nnc3c(=O)n(CC(=O)N4CCCC4)cnc32)cc1,-18,4.8,-41,-10%,2,
COc1ccc(CNC(=O)C2CSC(=O)C2)cc1 (stereo not drawn),53,-3.0,-26,1%,-4,
CCOC(=O)c1ccc(NC2=CC(=O)C(=O)c3ccccc32)cc1,100,42*,27,?,-34,
COc1ccc(OCC(O)CN2CCN(c3ncccn3)CC2)cc1 (stereo not drawn),2,-1.1,-32,2%,6,
CCOc1ccc(OCC)c(S(=O)(=O)NCc2ccccn2)c1,-3,-0.6,-34,6%,0,
COc1cccc(CNC(=O)C2CCN(S(=O)(=O)c3cccs3)CC2)c1,6,1.6,-11,-2%,-2,
CC(C)(C)CC(=O)Nc1nnc(SCC(=O)NC2CCCC2)s1,-5,-0.2,/,/,/,
CN1CCN(C(=O)c2ccc(-c3cccs3)s2)CC1,2,-3.1,/,-6%,/,
CCc1ccc(C(=O)COC(=O)CNC(=O)c2ccco2)cc1,-6,-2.0,-19,-11%,8,
O=C(O)c1cc(NCc2ccccc2C(F)(F)F)ccc1N1CCOCC1,-4,-1.0,-39,2%,7,
CCN(CC)CCSc1nc2ccc(OC)cc2[nH]1,-6,0.0,/,-7%,/,
O=C(NC1CCCC1)C1CCN(C(=O)Nc2cccc(Cl)c2)CC1,-5,-0.9,/,/,/,
COc1ccc(/C=C/C(=O)Nc2cccnc2)cc1OC,-2,-17,/,2%,10,
CC(=O)Nc1ccc(NC(=O)CSc2nnc(NC(=O)c3ccc(Br)o3)s2)cc1,-11,-0.2,/,/,/,
C/C=C/COC(=O)c1[nH]c2c(c1C)C(=O)CC(c1ccco1)C2 (stereo not drawn),-3,1.4,-12,3%,-4,Arbovirus inh repeat=-11
Cc1ccccc1OCC(=O)N(Cc1cccc(F)c1)C1CCS(=O)(=O)C1 (stereo not drawn),2,-4.6,/,/,/,
CCN(c1ccc(OC)cc1)S(=O)(=O)c1nnc(NC(=O)C2CCCCC2)s1,-1,-0.8,/,/,/,
Cc1ccc2cc(/C=N/NC(=O)[C@H](C)NC(=O)OC(C)(C)C)c(Cl)nc2c1,16,-3.6,-23,-3%,-15,
Cc1cc(NC(=O)c2c(F)cccc2F)n(-c2nc3ccccc3[nH]2)n1,80,7.8,-20,11µM*,-19,
Cc1ccnc(NS(=O)(=O)c2ccc3ccccc3c2)n1,4,2.1,/,/,/,
CC(NC(=O)C1CCC(CNc2c(N3CCCCC3)c(=O)c2=O)CC1)c1ccccc1 (stereo not drawn),-10,1.4,/,-9%,/,
COc1cccc(/C=N/NC(=O)CNC(=O)COc2ccccc2)c1O,10,-0.6,/,0%,/,
O=C(N/N=C/c1cccc(O)c1)c1ccc(COc2ccccc2Br)cc1,4,-2.2,-25,10%,-17,
N#CCSc1nc2ccc(N3CCCCC3)cc2c(=O)n1Cc1ccccc1,6,/,-45,0%,3,
COc1ccc(-n2ncc3c(NCc4ccco4)ncnc32)cc1,12,-0.6,-27,7%,-1,
CC(=O)c1ccc(OCCCC(=O)Nc2cc(Cl)ccc2-n2cncn2)cc1,?,1.9,/,/,/,
COc1ccc(OCCSc2nc(C)nc3ccccc23)cc1,48,2.4,/,11%,16,
COc1ccc(-n2nc(C(=O)NCC(=O)N3CCOCC3)c3ccccc3c2=O)cc1OC,0,2.2,/,/,/,
O=C(CSCc1c(Cl)cccc1Cl)NN=C1CCCC1,-1,0.2,/,5%,-3,

# Reprinted at random: 2 compounds from above, in no set order.
SMILES,Mtb betalactam,RecA splice inh,YopH inh,Mtb growth,Arbovirus inh,others
CC(NC(=O)C1CCC(CNc2c(N3CCCCC3)c(=O)c2=O)CC1)c1ccccc1 (stereo not drawn),-10,1.4,/,-9%,/,
Cc1cc(NC(=O)c2c(F)cccc2F)n(-c2nc3ccccc3[nH]2)n1,80,7.8,-20,11µM*,-19,

# Other results.
SMILES,Mtb betalactam,RecA splice inh,YopH inh,Mtb growth,Arbovirus inh,others
CCc1ccc(NC(=O)Cc2ccc(OC)cc2)cc1,2,0.6,-18,19%,6,
COc1ccccc1/C=C/C(=O)NCC(=O)N/N=C(/C)c1ccc(Cl)cc1,2,-0.1,/,/,/,
Cc1ccc(C(=O)N2N=C(c3ccc(NS(C)(=O)=O)cc3)CC2c2cccs2)cc1 (stereo not drawn),98,3.3,/,/,/,
CCCCOC(=O)Cn1c(=N)n(CCN(CC)CC)c2ccccc21,1,3.5,0,-5%,6,
O=S(=O)(Nc1ccc2c(c1)OCCO2)c1c(F)cccc1F,5,0.0,/,/,/,
O=C(Nc1cccc(C(F)(F)F)c1)c1cccnc1N1CCN(CCO)CC1,-15,-4.7,9,-4%,7,
COc1ccccc1CNC(=O)COC(=O)Cc1ccc(Cl)cc1,3,1.7,-50,8%,2,
O=C(c1ccc(S(=O)(=O)N2CCOCC2)cc1)N1CCN(S(=O)(=O)c2ccc(Cl)s2)CC1,-1,3.4,/,2%,/,
COc1cc2c(cc1OC)CN(C(=O)CCNS(=O)(=O)c1ccccc1F)CC2,-4,-1.4,/,/,/,
Cc1ccc2oc(-c3cccc(NC(=S)NC(=O)c4cccs4)c3)nc2c1,3,-2.4,3,3%,1,
Cc1ccc(NC(=S)NC2CCCCC2)cc1S(=O)(=O)N(C)C,-3,/,/,3%,9,
CCn1c(C)cc(=S)c2ccccc21,-2,20,-11,-5%,0,
O=C1OC2(CCCCC2)OC(=O)C1=CNc1ccc2c(c1)OCO2,76,-4.7,-50,56%,-4,
CC[C@H](C)[C@@H]1NC(=O)c2cc([N+](=O)[O-])cc(I)c2SC[C@@H](C(N)=O)NC(=O)[C@H](CCCCN)NC1=O,-7,/,20,1%,1,
O=C(C(Sc1ccccc1)c1ccc(Br)cc1)N1CCOCC1 (stereo not drawn),-3,-3.7,-7,-8%,-3,
CCC(C)N(C(=O)c1csnn1)C(C(=O)NC1CCCC1)c1ccc(F)cc1 (stereo not drawn),4,-0.3,/,/,/,
CC(C)CCN1C(=O)c2ccc(C(=O)Nc3ccc(O)cc3C(=O)O)cc2C1=O,-9,1.4,/,/,/,
CCOC(=O)[C@@H]1[C@H]2COc3ccccc3[C@@H]2N2C(=O)N(c3ccc(Cl)cc3)C(=O)[C@@]12C,-1,3.5,/,/,/,
COCCNC(=O)c1ccc(CS(=O)(=O)c2c(Cl)cccc2Cl)o1,6,0.9,-22,-7%,1,Arbovirus inh repeat=8
CCOCCSc1n[nH]c(=O)n1CCc1ccccc1,-3,0.0,/,/,/,
COc1ccc(N2CCN(C(=O)CC(C)S(=O)(=O)c3ccc4c(c3)NC(=O)CO4)CC2)cc1 (stereo not drawn),6,-0.2,/,/,/,
C=CCn1c(SCCCc2ccccc2)nc2c1c(=O)[nH]c(=O)n2C,3,2.1,-29,/,-13,Arbovirus inh repeat=-4
OCC1(Cc2ccccc2)CCN(CCCC2CCCC2)CC1,-10,2.2,/,4%,-3,
CCCCc1nc2cc(C(=O)N3CCNC(=O)C3)ccc2o1,8,-0.3,/,/,/,
COc1ccc(CCNC(=O)c2ccc(CNS(=O)(=O)c3cccc(Cl)c3)cc2)cc1OC,-4,0.4,-10,-4%,-8,
C/C(CC(=O)Nc1ccc2ccccc2c1)=N\NC(=O)c1ccc(O)c(O)c1,86,-10,/,/,/,
CCOC(=O)CSc1nc2cccnc2n1-c1ccc(F)cc1,0,0.1,6,1%,13,
C=CCOc1cccc(C2C(C(=O)c3ccc(C)o3)=C(O)C(=O)N2c2nccs2)c1 (stereo not drawn),-6,-0.2,-7,-4%,-7,

# Screens as filed in PubChem.

# The list is partial, so the mix of outcomes need not match the whole.
